Source: PubChem
Vaccinia stage = Vaccinia orthopox stage-specific inhibition; Vaccinia-infected cells, mCherry/Venus stage reporter fluorescence; stronger effect = lower value; some inactives read as strong as hits; activity change (mCherry), % (test concentration not listed); 0.01% of 89,000 active;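 active means mCherry past -33% and 40 or more points under the early reporter, replicates agreeing; inconclusive means past -33% without that gap or agreement; tested in A549 cells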;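 further: scaled between vehicle wells and reference inhibitor wells; 23 nL library stock went into each well; one replicate is shown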
Vaccinia stage Venus = second read-out of Vaccinia stage, no call of its own (marks repeat the call); activity change (Venus), %; measured here: Venus reporter, other viral stage;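 negative = less Venus signal; first of two replicates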
Starred values were filed as active, the others as inactive; ? = inconclusive; · = not tested or not shown; & = joins results of further samples. These rows are one share of the data (hit frequency here may not be typical).

SMILES | Vaccinia stage | Vaccinia stage Venus
O=C(C[C@H]1CC[C@H]2[C@@H](COC[C@H](O)CN2C(=O)Nc2cccc(F)c2)O1)NCc1ccccc1F | -12 | -7
N#C[C@@H]1[C@@H](c2ccccc2C2=CCCCC2)[C@@H](CO)N1C(=O)NC1CCCCC1 | -34 | -20
COc1ccc2c3c(n(C)c2c1)[C@H](CO)NCC31CN(Cc2ccccc2Cl)C1 | ? | ·
CNC[C@H]1OCCCC[C@H](C)Oc2ccc(N(C)C)cc2C(=O)N([C@@H](C)CO)C[C@@H]1C | -4 | 6
Cc1ccccc1S(=O)(=O)N1[C@@H](C#N)[C@H](c2ccc(-c3ccccc3)cc2)[C@@H]1CO | 8 | 7
Cc1ccc(S(=O)(=O)N[C@H]2C=C[C@H](CC(=O)NCCc3ccncc3)O[C@H]2CO)cc1 | -1 | -7
CN1CCN(C(=O)[C@H]2[C@H](CO)[C@H]3Cn4c(ccc(C5=CCCCC5)c4=O)[C@@H]2N3S(C)(=O)=O)CC1 | -3 | 7
CO[C@H]1CN(C)C(=O)c2cc(NS(=O)(=O)c3ccc(-c4ccccc4)cc3)ccc2OC[C@H](C)NC[C@@H]1C | ? | ·
C/C=C/c1ccc([C@@H]2[C@@H](CO)N3CCCCN(S(=O)(=O)c4ccc(F)cc4)C[C@@H]23)cc1 | -10 | -8
CO[C@@H]1CN(C)C(=O)c2cc(NC(=O)Cc3ccccc3)ccc2OC[C@@H](C)N(C(=O)c2ccccc2F)C[C@@H]1C | -4 | -8
COc1cccc(NC(=O)Nc2ccc3c(c2)OC[C@H](C)NC[C@@H](C)[C@@H](OC)CN(C)C3=O)c1 | -4 | 1
O=C(CN1CCOCC1)N[C@H]1CC[C@@H](CCNC(=O)C2CCCC2)O[C@H]1CO | -11 | -9
O=C(C[C@@H]1CC[C@H](NS(=O)(=O)c2ccc(F)cc2)[C@H](CO)O1)NC1CCCCC1 | -6 | -2
CCC(=O)N1[C@@H]2CN(C(=O)c3ccccc3F)c3ccccc3[C@@H]2[C@@H]1CO | 13 | 11
CCCNC(=O)N(C)C[C@H]1Oc2cc(-c3cncnc3)ccc2S(=O)(=O)N([C@@H](C)CO)C[C@H]1C | 23 | 2
Cc1noc(C)c1NC(=O)N(C)C[C@H]1OCCCC[C@H](C)Oc2ccc(NC(=O)Cc3ccccc3)cc2C(=O)N([C@@H](C)CO)C[C@@H]1C | 11 | 9
O=C(C[C@@H]1CC[C@H]2[C@@H](COC[C@H](O)CN2C(=O)Nc2ccc(C(F)(F)F)cc2)O1)NCC1CCCCC1 | ? | ·
COc1ccc(NC(=O)Nc2ccc3c(c2)C(=O)N([C@H](C)CO)C[C@@H](C)[C@H](CN(C)Cc2ccc(-c4ccccc4)cc2)O3)cc1 | -20 | -23
CC(C)NC(=O)Nc1ccc2c(c1)CC(=O)N([C@H](C)CO)C[C@H](C)[C@@H](CN(C)Cc1ccc(C(F)(F)F)cc1)O2 | -35 | -32
C[C@@H]1CCCCO[C@@H](CN(C)S(=O)(=O)c2ccc(F)cc2)[C@@H](C)CN([C@@H](C)CO)C(=O)c2cc(NC(=O)Nc3ccc(C(F)(F)F)cc3)ccc2O1 | 27 | 20
CCC(=O)Nc1ccc2c(c1)C(=O)N(C)C[C@H](OC)[C@@H](C)CN(Cc1ccccn1)[C@@H](C)CO2 | 7 | 7
C[C@@H]1CN([C@H](C)CO)C(=O)c2cc(C#Cc3ccccc3)cnc2O[C@H]1CN(C)C(=O)c1ccccn1 | -1 | -3
COc1ccc(S(=O)(=O)Nc2ccc3c(c2)C(=O)N([C@H](C)CO)C[C@@H](C)[C@@H](CN(C)C(=O)C2CCCCC2)OCCCC[C@@H](C)O3)cc1 | ? | ·
COc1ccc2c3c([nH]c2c1)[C@@H](CO)N(Cc1cc(F)ccc1F)CC31CN(C(=O)CN(C)C)C1 | -16 | -33
CN1c2ccc(-c3ccc(F)cc3)cc2[C@H]2[C@H](CCN2C(=O)C2CCOCC2)[C@H]1CO | ? | ·
O=C(NCc1ccccc1)C1=C[C@H](c2ccccc2)C[C@H](OCc2ccc(CO)cc2)O1 | 9 | 0
Fc1cccc(CN2[C@@H]3CNC[C@H]2C3c2ccc(-c3cccc(F)c3)cc2)c1 (stereo not given in full) | ? | 4
Cc1noc(C)c1S(=O)(=O)N(C)C[C@H]1Oc2ccc(NC(=O)Nc3ccc4c(c3)OCO4)cc2C(=O)N([C@@H](C)CO)C[C@H]1C | 7 | 7
O=C(C1CCC1)N1CC[C@@H]2[C@@H](CO)Nc3ccc(C#Cc4cccc(F)c4)cc3[C@@H]21 | -9 | -4
C[C@@H]1CN([C@@H](C)CO)S(=O)(=O)c2ccc(C#CCC3CCCC3)cc2O[C@H]1CN(C)Cc1cccc(C(=O)O)c1 | -23 | -19
O=C([C@@H]1[C@@H](CO)[C@@H]2Cn3c(ccc(-c4cccnc4)c3=O)[C@@H]2N1CCC(F)(F)F)N1CCOCC1 | 0 | 2
COc1ccc(-c2ccc([C@H]3[C@@H](CO)N(C(=O)C4CC4)[C@H]3C#N)cc2)cc1 | -5 | 10
CN(C)CC(=O)Nc1ccc2c(c1)[C@H]1C[C@@H](CC(=O)NCc3ccccn3)O[C@H](CO)[C@H]1O2 | 8 | 4
C[C@@H]1CN([C@@H](C)CO)C(=O)c2cc(-c3ccncc3)cnc2O[C@H]1CN(C)C(=O)Nc1ccc2c(c1)OCO2 | 21 | 12
COc1cccc(S(=O)(=O)N[C@H]2CC[C@@H](CCn3cc(-c4ccccn4)nn3)O[C@H]2CO)c1 | -9 | 7
C[C@@H]1CN([C@@H](C)CO)C(=O)c2cc(C#CC3CCCCC3)cnc2O[C@@H]1CN(C)S(=O)(=O)c1ccccc1 | ? | ·

Reprinted from the part before: 6 compounds; new compounds follow.
SMILES | Vaccinia stage | Vaccinia stage Venus
O=C([C@@H]1[C@@H](CO)[C@@H]2Cn3c(ccc(-c4cccnc4)c3=O)[C@@H]2N1CCC(F)(F)F)N1CCOCC1 | 0 | 2
COc1ccc(-c2ccc([C@H]3[C@@H](CO)N(C(=O)C4CC4)[C@H]3C#N)cc2)cc1 | -5 | 10
CN(C)CC(=O)Nc1ccc2c(c1)[C@H]1C[C@@H](CC(=O)NCc3ccccn3)O[C@H](CO)[C@H]1O2 | 8 | 4
C[C@@H]1CN([C@@H](C)CO)C(=O)c2cc(-c3ccncc3)cnc2O[C@H]1CN(C)C(=O)Nc1ccc2c(c1)OCO2 | 21 | 12
COc1cccc(S(=O)(=O)N[C@H]2CC[C@@H](CCn3cc(-c4ccccn4)nn3)O[C@H]2CO)c1 | -9 | 7
C[C@@H]1CN([C@@H](C)CO)C(=O)c2cc(C#CC3CCCCC3)cnc2O[C@@H]1CN(C)S(=O)(=O)c1ccccc1 | ? | ·
Cc1ccc(S(=O)(=O)N(C)C[C@@H]2OCCCC[C@@H](C)Oc3ccc(NC(=O)c4ccncc4)cc3C(=O)N([C@H](C)CO)C[C@@H]2C)cc1 | 27 | 11
C[C@H](CO)N1C[C@H](C)[C@H](CN(C)C(=O)Nc2ccc(F)cc2)Oc2ccc(NC(=O)Nc3ccccc3)cc2C1=O | 13 | 4
CC(C)NC(=O)N(C)C[C@@H]1Oc2cc(-c3ccncc3)ccc2S(=O)(=O)N([C@H](C)CO)C[C@@H]1C | 33 | 6
C[C@H](CO)N1C[C@H](C)[C@@H](CN(C)C(=O)NC2CCCCC2)Oc2c(cccc2N(C)C)C1=O | 11 | -6
CCC(=O)NC[C@@H]1[C@@H](c2ccccc2)[C@@H](CO)N1C(=O)C1CC1 | 14 | 16
CCC(=O)Nc1ccc2c(c1)C(=O)N(C)C[C@@H](OC)[C@@H](C)CN(C(=O)Cc1cccnc1)[C@H](C)CO2 | 8 | 13
CCCNC(=O)NC[C@@H]1[C@H](c2ccc(C3=CCCC3)cc2)[C@H](CO)N1C(=O)CC | 2 | 8
C[C@@H]1CN([C@H](C)CO)C(=O)c2cc(NC(=O)Cn3cnnn3)ccc2O[C@@H]1CN(C)Cc1ccncc1 | -2 | -11
O=C(c1cnccn1)N1CC(=O)N2[C@@H](CO)[C@@H](c3ccc(C#CCC4CCCC4)cc3)[C@@H]2C1 | -10 | -12
CC(=O)N1CC(=O)N2[C@H](CO)[C@@H](c3ccc(-c4cccc(C(=O)N(C)C)c4)cc3)[C@H]2C1 | 20 | 7
CS(=O)(=O)N1[C@@H]2c3ccc(C4=CCCCC4)c(=O)n3C[C@H]1[C@H](CO)[C@H]2C(=O)N1CCOCC1 | 9 | 11
CCC(=O)N1CCCCN2[C@@H](CO)[C@H](c3ccc(C#Cc4ccccc4)cc3)[C@@H]2C1 | ? | ·

Record cards, as listed above. Order of screens: Vaccinia stage | Vaccinia stage Venus
CCCNC(=O)NC[C@@H]1[C@H](c2ccc(C3=CCCC3)cc2)[C@H](CO)N1C(=O)CC in the list: 2 | 8
O=C(c1cnccn1)N1CC(=O)N2[C@@H](CO)[C@@H](c3ccc(C#CCC4CCCC4)cc3)[C@@H]2C1 in the list: -10 | -12
CCC(=O)Nc1ccc2c(c1)C(=O)N(C)C[C@@H](OC)[C@@H](C)CN(C(=O)Cc1cccnc1)[C@H](C)CO2 in the list: 8 | 13
CCC(=O)NC[C@@H]1[C@@H](c2ccccc2)[C@@H](CO)N1C(=O)C1CC1 in the list: 14 | 16

Continuation:
SMILES | Vaccinia stage | Vaccinia stage Venus
C[C@H](NC(=O)C[C@@H]1C=C[C@@H](NC(=O)C2CCOCC2)[C@@H](CO)O1)c1ccccc1 | 1 | -6
CC(C)CC#Cc1ccc2c(c1)O[C@H](CN(C)Cc1ccc(F)cc1)[C@H](C)CN([C@@H](C)CO)S2(=O)=O | ? | ·
C[C@H](CO)N1C[C@H](C)[C@H](CN(C)S(C)(=O)=O)Oc2ccc(NC(=O)Nc3ccc(F)cc3)cc2CC1=O | 9 | 10
CO[C@H]1CN(C)C(=O)c2cc(NS(=O)(=O)CC(F)(F)F)ccc2OC[C@H](C)NC[C@@H]1C | 7 | 7
O=C(N[C@@H]1CC[C@H](CCNS(=O)(=O)c2ccc(F)cc2)O[C@H]1CO)c1cccnc1 | -7 | -5
Cc1ccc(S(=O)(=O)Nc2ccc3c(c2)C(=O)N([C@@H](C)CO)C[C@H](C)[C@@H](CN(C)C(=O)Nc2c(C)noc2C)OCCCC[C@H](C)O3)cc1 | 14 | 19
O=C(C1CCOCC1)N1CC(=O)N2[C@@H](CO)[C@H](c3ccc(C#CCc4ccccc4)cc3)[C@@H]2C1 | 15 | 7
[N-]=[N+]=NCc1ccccc1C[C@@]1(C(=O)N2CCCCC2)N=C(c2ccc(OCCCO)cc2)O[C@@H]1c1ccccc1 | -22 | -15
C[C@H]1CCCCO[C@@H](CN(C)Cc2ccc(C(=O)O)cc2)[C@@H](C)CN([C@@H](C)CO)C(=O)c2cc(NC(=O)c3ccccc3)ccc2O1 | 24 | 101
C[C@H]1CN([C@@H](C)CO)C(=O)c2cc(NC(=O)Nc3cccc4ccccc34)ccc2O[C@@H]1CN(C)S(=O)(=O)c1cn(C)cn1 | 11 | 10
O=C(C[C@@H]1CC[C@@H](NC(=O)Nc2ccccc2)[C@H](CO)O1)NCc1ccccn1 | 0 | 12
CCCN(C)C[C@H]1Oc2cc(C#CC(C)C)ccc2S(=O)(=O)N([C@@H](C)CO)C[C@H]1C | -24 | -16
O=C(c1ccncc1)N1CC(=O)N2[C@H](CO)[C@@H](c3ccc(/C=C/c4ccccc4)cc3)[C@H]2C1 | -6 | -2
CCCC#Cc1cnc2c(c1)C(=O)N([C@H](C)CO)C[C@H](C)[C@@H](CN(C)S(=O)(=O)c1cccc(OC)c1)O2 | -27 | -18
COc1cccc(C(=O)Nc2ccc3c(c2)C(=O)N(C)C[C@@H](OC)[C@H](C)CN(C(C)=O)[C@@H](C)CO3)c1 | 8 | 10
C/C=C/c1cnc2c(c1)C(=O)N([C@H](C)CO)C[C@H](C)[C@H](CN(C)C(=O)Cc1ccccc1)O2 | 35 | 19
CN(C)C(=O)c1cccc(-c2ccc3c(c2)[C@H]2[C@H](CCN2C(=O)c2ccncc2)[C@@H](CO)N3C)c1 | 17 | 6
CCCNC(=O)[C@H]1[C@H](CO)[C@H]2Cn3c(ccc(-c4ccccc4F)c3=O)[C@H]2N1CCC | 7 | 4
C/C=C/c1ccc([C@H]2[C@H]3CN(C(=O)Nc4ccccc4F)CCCCN3[C@H]2CO)cc1 | 14 | -8
O=C(Nc1ccc(F)cc1)N[C@H]1CC[C@H](CCNC(=O)c2cc(Cl)cc(Cl)c2)O[C@H]1CO | ? | ·
C[C@H](CO)N1C[C@H](C)[C@@H](CN(C)Cc2cccc(F)c2)Oc2cc(-c3cccc(C#N)c3)ccc2S1(=O)=O | -7&-8 | -10&-2
CC(=O)N(C)C[C@H]1Oc2ncc(C#CC(C)(C)O)cc2C(=O)N([C@@H](C)CO)C[C@H]1C | 15 | 19
O=C(C[C@@H]1C[C@@H]2c3cc(NS(=O)(=O)c4ccc(F)cc4)ccc3O[C@@H]2[C@@H](CO)O1)NCc1ccccc1 | -5 | 3
CCNC(=O)Nc1ccc2c(c1)C(=O)N(C)[C@H]1CC[C@H](CC(=O)Nc3ccccc3Cl)O[C@@H]1CO2 | 3 | 8
Cc1noc(C)c1NC(=O)N(C)C[C@H]1Oc2ccc(NS(=O)(=O)c3c(C)noc3C)cc2CC(=O)N([C@@H](C)CO)C[C@@H]1C | 11 | 7
C[C@@H]1CCCCO[C@@H](CN(C)C(=O)c2ccncc2)[C@H](C)CN([C@@H](C)CO)C(=O)c2cc(NC(=O)c3ccccc3)ccc2O1 | 10 | 10
N#C[C@H]1[C@@H](c2ccccc2)[C@@H](CO)N1S(=O)(=O)c1ccc(F)cc1 | 17 | 6
